Screens deposited in PubChem BioAssay by several laboratories.
RecA splice inh: Mtb RecA intein splicing inhibitors, primary screen, biochemical, fluorescence, HTS. cell-free RecA intein splicing. AID 2221, 2009. inhibition, %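 (about 9 µM by stock and volumes)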. actives 0.75% (n = 290,000); in the data active means inhibition above about 30%; inconclusive means no clear call, values can overlap the other calls;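 further: 0% = vehicle wells and 100% = reference inhibitor control wells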
Target sequence (P9WHJ3 whole entry, looked up, canonical isoform): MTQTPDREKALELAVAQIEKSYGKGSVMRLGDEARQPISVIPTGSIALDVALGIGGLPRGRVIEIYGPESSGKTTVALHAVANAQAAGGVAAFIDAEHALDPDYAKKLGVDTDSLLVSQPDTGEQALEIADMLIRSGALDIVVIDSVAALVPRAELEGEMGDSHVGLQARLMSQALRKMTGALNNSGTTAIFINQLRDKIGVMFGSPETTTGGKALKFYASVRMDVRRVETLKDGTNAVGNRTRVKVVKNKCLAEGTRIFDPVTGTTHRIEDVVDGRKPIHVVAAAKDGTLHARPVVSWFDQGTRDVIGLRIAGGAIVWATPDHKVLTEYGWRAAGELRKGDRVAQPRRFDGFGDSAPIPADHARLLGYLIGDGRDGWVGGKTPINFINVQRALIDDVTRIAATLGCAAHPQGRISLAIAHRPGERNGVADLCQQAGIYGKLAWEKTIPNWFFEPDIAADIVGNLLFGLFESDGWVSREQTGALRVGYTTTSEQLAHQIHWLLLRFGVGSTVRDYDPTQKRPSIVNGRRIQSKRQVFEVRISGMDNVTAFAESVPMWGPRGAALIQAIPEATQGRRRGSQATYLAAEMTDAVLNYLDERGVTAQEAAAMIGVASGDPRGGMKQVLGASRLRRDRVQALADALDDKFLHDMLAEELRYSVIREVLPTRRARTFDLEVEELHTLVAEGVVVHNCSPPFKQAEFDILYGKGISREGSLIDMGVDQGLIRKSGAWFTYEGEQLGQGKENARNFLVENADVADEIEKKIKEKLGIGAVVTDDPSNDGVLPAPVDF
Mtb bLac sens: beta-lactam sensitization of Mtb H37Rv, H37Rv. M. tuberculosis H37Rv growth with meropenem, percent inhibition; hits of this screen are not shown here. inhibition, % at 25 µM. actives 0.27% (n = 330,000). AID 434955, 2010;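 active means about 74% or more and at least 40 points above the plate without the antibiotic, then above 30% in a dose series; inconclusive means first-round hits that could not be retested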;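 further: growth measured after seven days incubation then overnight dye step; 0% = bacteria only wells and 100% = bacteria with antibiotic; twin plates without the antibiotic show which effects depend on it; some results filed as inactive read as strong as hits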
YopH PTP inh: YopH tyrosine phosphatase inhibitors, primary screen, biochemical, fluorescence Ex485/Em525. YopH tyrosine phosphatase [Yersinia enterocolitica]. actives 0.16% (n = 140,000). inhibition, %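 (about 10 µM by stock and volumes)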. AID 898, 2007;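 active means inhibition of 50% or more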;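 further: controls were vehicle for no effect and minimum signal wells for full effect; inactives centre near -20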
Mtb growth: M. tuberculosis H37Rv growth inhibitors, H37Rv strain (AID 1626) | actives 0.95% (n = 220,000) | one-dose inhibition, % at 10 µM; IC50 in µM for titrated hits | M. tuberculosis H37Rv growth inhibition; higher % means a stronger effect;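 active means confirmed in a dose series; inconclusive means inhibition above 80% but not taken into the dose series; inactive means below 80% or under 30% at every dose of the series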;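 further: bacteria incubated seven days before Alamar blue readout; 0% = bacteria only wells and 100% = bacteria with antibiotic wells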
Arbovirus anti: antivirals against arbovirus infection, primary screen, cell-based, full library, 10K replicate subset; arbovirus infection cell-based antiviral screen; inhibition, % at 10 µM; actives 0.37% (n = 200,000); AID 1251, 2008;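 active means inhibition from about 30%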;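 further: bluetongue infection of BSR cells; cell survival read as ATP light after 72 h; 0% = infected wells without compound and 100% = uninfected wells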
Arbovirus anti repeat: further read-out of Arbovirus anti, marked with its call; inhibition, %; measured here: 10K subset replicate screen; many hits read low in the repeat;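 first of two repeat runs on a subset; 0% = infected and 100% = uninfected wells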
Starred values were filed as active, the others as inactive.

How did COc1cccc(CN(C)C(=O)Cc2ccc(OC)c(S(=O)(=O)N3CCOCC3)c2)c1 do in these assays?
RecA splice inh: 3.0; Mtb bLac sens: -10

How did CC(C)(C)C(=O)COC(=O)C1=NN(c2ccccc2)C(=O)CC1 do in these assays?
RecA splice inh: -2.1; Mtb bLac sens: -7

Results for COc1cc(N=Nc2c(C)n(C)n(-c3ccccc3)c2=O)ccc1N ?
RecA splice inh: -0.9; Mtb bLac sens: -1; Mtb growth: 6%; Arbovirus anti: -7

What do the screens show for `CC1=C(C(=O)OC(C)C)C(c2cccnc2)C2=C(CC(C)(C)CC2=O)N1` (stereo not given)?
RecA splice inh: -61; Mtb bLac sens: 2; YopH PTP inh: -6; Mtb growth: -13%; Arbovirus anti: -2

What do the screens show for `O=c1c2ccccc2cnn1Cc1ccc(Br)cc1F`?
RecA splice inh: 0.8; Mtb bLac sens: -2

How did C[C@@H](C(=O)Nc1ccc2c(c1)OCO2)n1c(=O)[nH]c2ccccc2c1=O do in these assays?
RecA splice inh: 2.8; Mtb bLac sens: -1

How did C/C(CC(=O)Nc1c(C)cc(C)cc1C)=N\NC(=O)c1cnccn1 do in these assays?
RecA splice inh: -4.2; YopH PTP inh: -15; Mtb growth: -4%; Arbovirus anti: -3

Results for COc1ccc(-c2nc3c(c(=O)[nH]c(=O)n3Cc3ccccc3)n2CCO)cc1 ?
RecA splice inh: -2.0; Mtb bLac sens: -3

How did COc1ccc(C(=O)NNC(=S)NC(=O)c2ccccc2[N+](=O)[O-])cc1 do in these assays?
RecA splice inh: -0.7; Mtb bLac sens: 51; YopH PTP inh: -12; Mtb growth: 9%; Arbovirus anti: -13

Results for CSc1cccc(NC(=S)N(C(C)C)C(C)c2ccccn2)c1 (stereo not given) ?
RecA splice inh: 5.7; Mtb bLac sens: 2; Mtb growth: inconclusive; Arbovirus anti: 9

What do the screens show for `Clc1ccc(Cn2c(-c3cccnc3Cl)nc3ccccc32)c(Cl)c1`?
RecA splice inh: 9.4; Mtb bLac sens: 0; YopH PTP inh: -8; Mtb growth: 3%; Arbovirus anti: -18

Results for CCOC(=O)N1CCC(=NNC(=O)NC2CCCCC2)CC1 ?
RecA splice inh: -3.2; Mtb bLac sens: -11; Mtb growth: -5%; Arbovirus anti: -1

How did CC1CCCCC1NC(=O)C(=O)NCC1CCCO1 (stereo not given) do in these assays?
RecA splice inh: -0.8; Mtb bLac sens: 0; YopH PTP inh: -18; Mtb growth: -3%; Arbovirus anti: 1

How did CC(C)(C)Cc1nc2ccccc2n1CCc1ccccc1 do in these assays?
RecA splice inh: 2.0; Mtb bLac sens: 61; YopH PTP inh: -21; Mtb growth: -10%; Arbovirus anti: -4

Results for COCCNC(=O)c1nn(-c2cc(OC)cc(OC)c2)c(=O)c2ccccc12 ?
RecA splice inh: 0.7; Mtb bLac sens: -5; YopH PTP inh: -15; Mtb growth: 14%; Arbovirus anti: 2

Results for O=C(NCc1nc2ccccc2[nH]1)C1=C[C@H](c2csc3ccccc23)C[C@H](OCc2ccc(CO)cc2)O1 ?
RecA splice inh: 8.6; Mtb bLac sens: 0; Mtb growth: 17%

Results for Cc1cccc2c1-c1sc(C(=O)NCCCN3CCc4ccccc4C3)cc1CO2 ?
RecA splice inh: -22; Mtb bLac sens: 80; Mtb growth: 50%

Results for CCCCCCCCC(=O)Nc1cc(C)ccc1OC ?
RecA splice inh: 3.7; Mtb bLac sens: 17; YopH PTP inh: -24; Mtb growth: 4%; Arbovirus anti: -5

How did Cc1ccccc1-c1nc(CN2CCC(C(=O)NC3CC3)CC2)c(C)o1 do in these assays?
RecA splice inh: -0.3; Mtb bLac sens: -1

What do the screens show for `Cn1ncc([N+](=O)[O-])c1C(=O)Nc1ccccc1Cl`?
RecA splice inh: -0.6; Mtb bLac sens: -4

Filtered by structure, the entries above containing a tert-butyl group.
How did CC(C)(C)C(=O)COC(=O)C1=NN(c2ccccc2)C(=O)CC1 do in these assays?
RecA splice inh: -2.1; Mtb bLac sens: -7

How did CC(C)(C)Cc1nc2ccccc2n1CCc1ccccc1 do in these assays?
RecA splice inh: 2.0; Mtb bLac sens: 61; YopH PTP inh: -21; Mtb growth: -10%; Arbovirus anti: -4

Other compounds
How did CCOc1cc(/C=N/NC(N)=O)ccc1OCC(=O)Nc1ccc(C)c(C)c1 do in these assays?
RecA splice inh: -1.4; Mtb bLac sens: -4; Mtb growth: -5%; Arbovirus anti: 7

How did CC(C)Sc1nnc(-c2ccc(S(=O)(=O)N3CCOCC3)cc2)n1C do in these assays?
RecA splice inh: 2.8; Mtb bLac sens: -3

What do the screens show for `CCC(=O)N1c2ccccc2NC2=C(C(=O)CCC2)C1c1ccc(N(C)C)cc1` (stereo not given)?
RecA splice inh: -3.8; Mtb bLac sens: -10; YopH PTP inh: -23; Mtb growth: -4%; Arbovirus anti: 5

What do the screens show for `O=C(NCCCn1ccnc1)c1cccnc1`?
RecA splice inh: 0.5; Mtb bLac sens: -3; YopH PTP inh: -7; Mtb growth: 2%; Arbovirus anti: -8

How did CCOC(=O)c1cc(-c2ccccc2)sc1NC(=O)C(C)Sc1nnc(C)s1 (stereo not given) do in these assays?
RecA splice inh: 8.0; Mtb bLac sens: 13; YopH PTP inh: -27; Mtb growth: 4%; Arbovirus anti: -7

Results for CC(C)NC(=O)CN1C(=O)NC(CCc2ccccc2)C1=O (stereo not given) ?
RecA splice inh: 0.2; Mtb bLac sens: -7; YopH PTP inh: -30; Mtb growth: -1%; Arbovirus anti: 6

Results for Cc1cc(C)c(C)c(C(=O)COC(=O)CNC(=O)CNC(=O)c2ccco2)c1C ?
RecA splice inh: -14; Mtb bLac sens: -6

Results for CC(C)C(OC(=O)c1nsc(Cl)c1Cl)C(=O)NCc1ccc2c(c1)OCO2 (stereo not given) ?
RecA splice inh: -0.6; Mtb bLac sens: -3; YopH PTP inh: -33; Mtb growth: 11%; Arbovirus anti: -3

Results for CCCCn1c(=O)c(C(=O)c2ccccc2)nc2ccccc21 ?
RecA splice inh: 3.2; Mtb bLac sens: 6; YopH PTP inh: -16; Mtb growth: 1%; Arbovirus anti: 2

What do the screens show for `COc1ccc(C(=O)N2CCC(C(=O)c3c(C)cc(C)cc3C)CC2)cc1`?
RecA splice inh: 5.9; Mtb bLac sens: -2; Mtb growth: -9%

How did CCOc1ccc(Nc2cc(=O)n(C)c(=O)n2C)cc1 do in these assays?
RecA splice inh: -0.8; Mtb bLac sens: -6; YopH PTP inh: -54; Arbovirus anti: 14

Results for Cc1ccc(S(=O)(=O)NC2CCCc3ccccc32)cc1C (stereo not given) ?
RecA splice inh: 0.4; Mtb bLac sens: 6; YopH PTP inh: -26; Mtb growth: -3%; Arbovirus anti: 1

What do the screens show for `c1ccc(CN2CCN(c3nc4ccccc4c4ccccc34)CC2)cc1`?
RecA splice inh: 12; Mtb bLac sens: 44; YopH PTP inh: -8; Mtb growth: 7%; Arbovirus anti: 1

How did CCCCSc1nnc2c(n1)OC(C(=O)c1ccccc1)Nc1ccccc1-2 (stereo not given) do in these assays?
RecA splice inh: 17; YopH PTP inh: -38; Arbovirus anti: -2

How did CCOCCOc1nc2c(c(=O)n(C)c(=O)n2C)n1CCc1ccccc1 do in these assays?
RecA splice inh: -2.9; Mtb bLac sens: 10; YopH PTP inh: 35; Mtb growth: 6%; Arbovirus anti: 0

What do the screens show for `Cc1ccc(OCCCCn2ccnc2C)c(C)c1`?
RecA splice inh: -1.4; Mtb bLac sens: 1; Mtb growth: 1%; Arbovirus anti: -8

Results for CC(=O)N(c1ccccc1C)C1CCCC1 ?
RecA splice inh: -0.7; Mtb bLac sens: -6; YopH PTP inh: -17; Mtb growth: -8%; Arbovirus anti: 3

Results for O=C(Oc1ccc2c(=O)c(Oc3ccc4ccccc4c3)coc2c1)c1ccco1 ?
RecA splice inh: 2.5; Mtb bLac sens: 0; YopH PTP inh: -10; Mtb growth: 98%; Arbovirus anti: 13

What do the screens show for `Cc1nn(-c2ccccc2)c(-n2cccc2)c1C(=O)O`?
RecA splice inh: 0.1; Mtb bLac sens: 18; YopH PTP inh: -13; Mtb growth: 5%; Arbovirus anti: 6

Results for CC(C)(C)c1ccc(C(=O)NCCC(=O)N2CCN(c3ncccn3)CC2)cc1 ?
RecA splice inh: -0.7; Mtb bLac sens: -4; YopH PTP inh: -7; Mtb growth: 5%; Arbovirus anti: 2

How did Cc1cccc(NC(=O)CSc2nnc(NC(=O)c3ccc(S(=O)(=O)N4CCOCC4)cc3)s2)c1C do in these assays?
RecA splice inh: -3.8; Mtb bLac sens: -3; YopH PTP inh: -31; Mtb growth: -11%; Arbovirus anti: 4

Results for Cc1cccc(Cn2c(SCCN3CCCCC3)nc3c2c(=O)[nH]c(=O)n3C)c1 ?
RecA splice inh: 0.6; Mtb bLac sens: 4; Mtb growth: 0%; Arbovirus anti: 4; Arbovirus anti repeat: 3

How did COc1ccc(NC(=O)C2CCCN2C(=O)Nc2ccccc2)cc1OC (stereo not given) do in these assays?
RecA splice inh: -1.7; Mtb bLac sens: 0; YopH PTP inh: -20; Mtb growth: -4%; Arbovirus anti: -4

Results for C=CCC(O)(CC=C)C(C)N (stereo not given) ?
RecA splice inh: -0.7; Mtb bLac sens: -3; Mtb growth: 0%; Arbovirus anti: -2

Results for CN(NC(=O)/C=C/C(=O)O)c1ncc(C(F)(F)F)cc1Cl ?
RecA splice inh: 3.7; Mtb bLac sens: 6; Mtb growth: -1%; Arbovirus anti: 7

How did O=S(=O)(Nc1cccc(-c2cn3c(n2)SCC3)c1)c1ccc(F)cc1F do in these assays?
RecA splice inh: -4.5; Mtb bLac sens: -3

Results for COc1ccc(-c2cc(=O)[nH]c(NCc3ccccc3)n2)cc1 ?
RecA splice inh: 1.3; Mtb bLac sens: 39; YopH PTP inh: -42; Mtb growth: 11%; Arbovirus anti: 4

How did C=CCNC(=S)N/N=C/c1ccccc1OCCOc1ccccc1 do in these assays?
RecA splice inh: -7.3; Mtb bLac sens: -7

How did CCOc1ccc2[nH]c3c(N4CCC5(CC4)OCCO5)ncnc3c2c1 do in these assays?
Mtb bLac sens: 8; Mtb growth: 7%

What do the screens show for `O=C(Cc1ccc(Br)cc1)N1CCN(C(=O)c2ccco2)CC1`?
RecA splice inh: 0.5; Mtb bLac sens: -1

How did CC1(C)CC(=O)C2=C(C1)c1c(ccc3ccccc13)NC2c1ccc(C(=O)O)cc1 (stereo not given) do in these assays?
RecA splice inh: -37; Mtb bLac sens: 10

How did O=C(NNC(=O)C1CC(c2cccnc2)=NO1)Nc1ccccc1F (stereo not given) do in these assays?
RecA splice inh: 2.7; Mtb bLac sens: 0; Mtb growth: 5%; Arbovirus anti: 0

Results for CCCCn1ccc(=O)c2c(C(F)(F)F)nccc21 ?
RecA splice inh: -4.6; Mtb bLac sens: 8; YopH PTP inh: -24; Mtb growth: -12%; Arbovirus anti: 13; Arbovirus anti repeat: 6

Results for COC(=O)COc1ccc(NC(=O)c2ccco2)cc1 ?
RecA splice inh: -3.8; Mtb bLac sens: 94; Mtb growth: 69%

How did COc1cccc(NC(=O)N2CCCC2C(=O)Nc2ccc3c(c2)OCCO3)c1 (stereo not given) do in these assays?
RecA splice inh: -1.8; Mtb bLac sens: -4; Mtb growth: 2%; Arbovirus anti: 7

Results for CCCN(CCC)S(=O)(=O)c1cccc(-c2csc(C)n2)c1 ?
RecA splice inh: 7.8; Mtb bLac sens: -1; Mtb growth: 4%

How did CCOC(=O)c1nnn(CC(=O)Nc2cccc(F)c2)c1C(=O)OCC do in these assays?
RecA splice inh: -1.7; Mtb bLac sens: -5; YopH PTP inh: -10; Mtb growth: 65%; Arbovirus anti: 4

How did N#C/C(=C(/O)COC(=O)CSc1ccc(Cl)cc1)c1nc2ccccc2[nH]1 do in these assays?
RecA splice inh: 3.1; Mtb bLac sens: 58; YopH PTP inh: -13; Mtb growth: 76%; Arbovirus anti: -31

How did O=C(COc1ccc(NC(=O)c2ccccc2)cc1)c1ccccc1 do in these assays?
RecA splice inh: -1.7; Mtb bLac sens: -6

Results for CCN1CCn2c1nc(N1CCCCC1)nc2=O ?
RecA splice inh: -0.8; Mtb bLac sens: 1; YopH PTP inh: 1; Mtb growth: -9%; Arbovirus anti: 7

What do the screens show for `Cc1ccc(NC(=O)CN2CCN(C(=O)C3CCCO3)CC2)c(C)c1` (stereo not given)?
RecA splice inh: -2.6; Mtb bLac sens: -10

How did COc1ccc2[nH]c(C(=O)NCc3ccccc3)c(C)c2c1 do in these assays?
RecA splice inh: 0.3; Mtb bLac sens: -1

An excerpt; rates above refer to the full screens.
